# Screening results as filed in PubChem.
# BasE inh: BasE siderophore biosynthesis inhibition | 84,000 tested, 0.1% active | inhibition, % (concentration not given with the values) | purified BasE, fluorescence polarization binding displacement;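 active = both replicates above 25% with normal brightness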;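 also: 0% = negative plate control signal and 100% = positive plate control signal; stock transfer was 100 nL into about 30 µL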
# LANA-nucl inh: inhibitors of KSHV LANA binding to nucleosomes; FITC-LANA1-23 / chicken nucleosome fluorescence polarization; stronger effect = lower value; 51,000 tested, 0.3% active; z-score (test concentration not listed);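 active = both repeat wells score below -2 in polarization z-score versus plate sample wells, excluding overly bright wells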;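 also: 100 nL library stock added to about 30 µL; numbers are from one replicate; some results filed as inactive read as strong as hits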
#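 Assay system: FITC-LANA peptide and chicken nucleosomes; input: 240 nM purified chicken nucleosomes (480 nM peptide binding sites), final; also added: 50 nM FITC-LANA1-23 probe; medium: TEN-BT buffer, pH 7.5; doses: pin-transferred compound, 100 nL; times: 10–45 min, room temperature; technique: fluorescence polarization; replication: duplicates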
# Numbers without * were called inactive; nt = not tested or not shown. Some of the compounds tested. The share of hits here may be higher or lower than overall.
# The first 18 compounds as a preview:
SMILES,BasE inh,LANA-nucl inh
COc1ccc(C(C(=O)Nc2ccc(C(C)C)cc2)N(Cc2ccco2)C(=O)CC2NC(=O)NC2=O)cc1 (stereo not given),-0.4,0.7
CCCC(=O)NCc1ccccc1Cl,1.4,-1.2
COc1cc(CO)ccc1OCc1cc(Cl)cc2c1OCOC2,-0.9,nt
COC(=O)c1ccc(NC(=O)COc2cccc3c2CCNC3=O)cc1,-0.1,-0.65
N#Cc1cc2c(cc1C#N)N(Cc1ccccc1)CCN2Cc1ccccc1,-0.7,nt
Cn1c(N)cc(=O)n(C)c1=O,0.5,nt
O=C(CCC(C(=O)O)N1C(=O)c2ccccc2C1=O)Nc1ccc2c(c1)COCO2 (stereo not given),3.6,nt
CC(C)CN1C(=O)/C(=C/C=C/c2ccccc2)SC1=S,0.5,nt
Cc1c(O)nc(SC2CC(=O)N(c3ccccc3)C2=O)[nH]c1=O (stereo not given),-3.0,0.99
COc1ccc(NC(=O)CSc2nc3ccncc3[nH]2)cc1,3.6,0.52
Cc1cccc(Nc2nc3nonc3nc2Nc2cccc(C)c2C)c1C,1.2,-0.12
COc1ccccc1/C=C1\SC(=O)N(CCC(=O)N2c3ccccc3Sc3ccccc32)C1=O,0.4,nt
CCOC(=O)c1ccc(-n2c(O)c(/C=N/N3CCOCC3)c3ccccc3c2=O)cc1,0.1,nt
Cc1cccc(N2COc3ccc(Br)cc3C2)c1,0.5,0.71
Oc1ccc(N=Cc2c[nH]c3ccccc23)cc1,3.4,nt
CCC1(CC)C(=O)N(C)C(=O)NC1=Nc1ccccc1,-0.4,0.58
Cc1cccc(OCc2nnc(SCc3cc(=O)oc4ccc5ccccc5c34)o2)c1,0.9,nt
COCCCN=C(c1ccco1)n1c(=S)nc(-c2ccco2)n(CCCOC)c1=S,1.8,nt

# Main list, from the start:
SMILES,BasE inh,LANA-nucl inh
COc1ccc(C(C(=O)Nc2ccc(C(C)C)cc2)N(Cc2ccco2)C(=O)CC2NC(=O)NC2=O)cc1 (stereo not given),-0.4,0.7
CCCC(=O)NCc1ccccc1Cl,1.4,-1.2
COc1cc(CO)ccc1OCc1cc(Cl)cc2c1OCOC2,-0.9,nt
COC(=O)c1ccc(NC(=O)COc2cccc3c2CCNC3=O)cc1,-0.1,-0.65
N#Cc1cc2c(cc1C#N)N(Cc1ccccc1)CCN2Cc1ccccc1,-0.7,nt
Cn1c(N)cc(=O)n(C)c1=O,0.5,nt
O=C(CCC(C(=O)O)N1C(=O)c2ccccc2C1=O)Nc1ccc2c(c1)COCO2 (stereo not given),3.6,nt
CC(C)CN1C(=O)/C(=C/C=C/c2ccccc2)SC1=S,0.5,nt
Cc1c(O)nc(SC2CC(=O)N(c3ccccc3)C2=O)[nH]c1=O (stereo not given),-3.0,0.99
COc1ccc(NC(=O)CSc2nc3ccncc3[nH]2)cc1,3.6,0.52
Cc1cccc(Nc2nc3nonc3nc2Nc2cccc(C)c2C)c1C,1.2,-0.12
COc1ccccc1/C=C1\SC(=O)N(CCC(=O)N2c3ccccc3Sc3ccccc32)C1=O,0.4,nt
CCOC(=O)c1ccc(-n2c(O)c(/C=N/N3CCOCC3)c3ccccc3c2=O)cc1,0.1,nt
Cc1cccc(N2COc3ccc(Br)cc3C2)c1,0.5,0.71
Oc1ccc(N=Cc2c[nH]c3ccccc23)cc1,3.4,nt
CCC1(CC)C(=O)N(C)C(=O)NC1=Nc1ccccc1,-0.4,0.58
Cc1cccc(OCc2nnc(SCc3cc(=O)oc4ccc5ccccc5c34)o2)c1,0.9,nt
COCCCN=C(c1ccco1)n1c(=S)nc(-c2ccco2)n(CCCOC)c1=S,1.8,nt
CCCCn1c(CCC(=O)O)nc2cc(S(=O)(=O)N(C)C)ccc21,-1.9,nt
N/C(=N\OC(=O)COc1ccc(Cl)cc1Cl)c1ccncc1,-12,-0.17
Nc1ccc(OCC2CCCO2)cc1 (stereo not given),-2.4,0.34
CN(C(=O)COC(=O)C12CC3CC(CC(C3)C1)C2)C1CCS(=O)(=O)C1 (stereo not given),0.6,nt
Oc1ccc2c(c1)OCCO2,3.9,nt
Cc1cc(=O)n(Cc2ccccc2Cl)c(O)c1C#N,0.6,1.3
COc1ccc(C2=CC(c3ccc(C)o3)n3nnnc3N2)cc1OC (stereo not given),0.9,nt
CC1(NC(=O)c2cn(-c3ccccc3)nc2-c2cccnc2)CCS(=O)(=O)C1 (stereo not given),3.7,nt
CCCCN1C(=O)c2ccc(Br)cc2C1=O,-1.8,0.54
O=C(NCc1ccco1)C(c1ccccc1)N(Cc1ccco1)C(=O)Cn1nnc2ccccc21 (stereo not given),2.7,-0.023
O=C(N=Nc1c(O)[nH]c2ccccc12)C1C2CCCCC21 (stereo not given),0.6,0.58
COCCn1c(C)cc(/C=C(\C#N)C(=O)C(C)(C)C)c1C,0.6,nt
Cc1onc(-c2ccccc2)c1C(=O)N1CCOCC1,-0.6,0.93
O=C(CCN1CCOCC1)Nc1ccc(Cl)cc1,0.3,-1.1
Nc1nnc(CCc2ccccc2)c(=O)n1N,0.6,nt
O=C(/C=C/N1CCOCC1)c1csc(-c2ccc(C(F)(F)F)cc2)n1,2.8,nt
Cc1cc(C)c(C#N)c(SCc2cccnc2)n1,1.0,-0.14
O=C(Cn1cc(/C=C2\C(=O)NC(=O)N(Cc3ccccc3)C2=O)c2ccccc21)NCc1ccco1,0.5,0.007
CN(C)CCOC(=O)C12CCC3CC(CC(C3)C1)C2,0.0,-0.79
CN(C(=O)Cn1c(=O)sc2ccccc21)c1nnc(SCc2ccccc2)s1,-4.3,0.23
Cc1ccccc1N1CCN(C(=S)c2ccc(N(C)C)cc2)CC1,1.9,-0.79
COc1cc(N2C(=O)c3ccccc3C2=O)c(Cl)cc1C(=O)OCC(=O)N1CCCC1,1.1,nt
CC(C)c1ccc(OCc2nnc(SCC(=O)NC3CCCCC3C)o2)cc1 (stereo not given),0.7,-0.84
CC1CN(c2nc3ccccc3nc2SCC(=O)Nc2ccc(F)cc2)CC(C)O1 (stereo not given),-1.0,1.8
CC(O)c1ccc(Oc2ccc(C(C)O)cc2)cc1 (stereo not given),-1.2,nt
Cc1cccc(NS(=O)(=O)c2ccc(C)c(C(=O)NN3CCN(C)CC3)c2)c1,-0.4,nt
CCCCn1c(SCC(=O)N2CCCC2)nc2ccccc2c1=O,-0.7,0.19
CCc1ccc2nc(Nc3nc4ccccc4c(=O)[nH]3)nc(C)c2c1,2.4,nt
N#CCCSc1nnc(-c2ccc(Br)cc2)n1CCc1ccccc1,0.5,nt
CC(=O)n1c(C#N)c(O)c2ccccc21,-1.9,-0.19
O=c1c(C=NCCc2ccccc2)c(NCCc2ccccc2)nc2ccccn12,0.8,nt
CC12CN(C(=O)c3ccccc3)CC(C)(CN(C(=O)c3ccccc3)C1)C2,0.8,-0.79
O=C(NCC1CCCC(CNC(=O)Nc2ccc3c(c2)OCO3)C1)Nc1ccc2c(c1)OCO2 (stereo not given),-0.2,nt
O=C(Cn1cncn1)c1ccc(Cl)cc1,nt,0.19
CSc1nsc(SC)c1-c1nn[nH]n1,-0.2,0.35
O=C1NC(=O)C2C1C(c1ccccc1)N1C3C(=O)NC(=O)C3C(c3ccccc3)N21 (stereo not given),0.6,-0.57
Cc1ccc(N2C(=O)c3cccc4c(N5CCN(C)CC5)ccc(c34)C2=O)c2cccnc12,27*,-2.8*
CCc1noc(C)c1C(=O)N1CCCCCCC1,1.0,-0.51
O=C(CCNC(=O)Nc1ccccc1)Nc1ccc(N2CCOCC2)cc1N1CCOCC1,0.5,nt
COc1ccccc1/C=N/OCC(=O)NCc1ccc2c(c1)OCO2,3.7,nt
CCOC(=O)C1CCCN(C(=O)C(C)(C)Oc2ccc(Cl)cc2)C1 (stereo not given),-0.5,-0.39
CCCn1nc(NC(=O)CCC(=O)O)c2cc3cccc(C)c3nc21,-0.2,-1
# (continued)
SMILES,BasE inh,LANA-nucl inh
CCc1ccc(N2CN(Cc3ccccc3)CNC2=S)cc1,0.1,nt
CCOC(=O)c1ccc(NC(=O)C2CC(=O)NC(Nc3nc4ccccc4s3)=N2)cc1 (stereo not given),0.4,-0.45
CC1CCCCN1C(=O)COc1ccc2oc3ccccc3c2c1 (stereo not given),0.6,nt
Nc1c(Cl)nc(-c2ccccc2)nc1Cl,0.8,nt
COC(=O)c1cc2c(ccn2-c2ccc(F)cc2)n1CC1CCCCC1,0.6,-0.74
CCN(CCC#N)c1ccccc1,1.4,0.75
COc1ccc(C(=O)NCC23C=CC(O2)C2C(=O)N(c4ccccc4C)C(=O)C23)cc1 (stereo not given),-1.5,-0.91
O=C(N/C=C/c1ccsc1)Sc1cc(C(F)(F)F)cc(C(F)(F)F)c1,3.6,nt
Cc1ccccc1-n1c(Cn2c(=O)sc3ccccc32)n[nH]c1=S,1.9,-0.77
Cc1ccc(/C(O)=C/c2nc3ccccc3[nH]2)cc1,3.0,nt
CC1(CSc2ccccc2C(=O)O)NC(=O)NC1=O (stereo not given),2.2,nt
Cc1ccccc1NC(=O)CN1C(=O)c2ccccc2C1=O,3.8,nt
CC1CCCC(NC(=O)Cn2ncc(Cl)c(Cl)c2=O)C1C (stereo not given),1.1,nt
CCN(CC)c1ccc(NC(=O)C2c3ccccc3Oc3ccccc32)cc1,3.0,nt
Cc1cc(=O)n2[nH]c(NCc3ccccc3)nc2n1,1.6,-0.13
CCn1c(CCC(=O)Nc2ccc(N3CCOCC3)cc2)nc2cc(S(=O)(=O)N(C)C)ccc21,-1.0,nt
O=C1NN(c2ccccc2)C(=O)/C1=C\c1ccccc1,1.9,-0.38
Cc1ccc(C(=O)/C=C/C(=O)c2ccc(C)cc2)cc1,nt,2.6
Cc1occc(=O)c1OC(=O)c1cccs1,-0.9,nt
CC1(C)Cc2nc3sc4c(=O)n(CC(=O)c5ccc(Cl)cc5)cnc4c3cc2CO1,0.8,nt
CC(=O)Nc1nnc(SC(C)C(=O)Nc2ccc(S(N)(=O)=O)cc2)s1 (stereo not given),0.7,0.43
O=C1CCC(c2ccccc2)c2cc(Oc3c(F)c(N4CCOCC4)nc(F)c3Cl)ccc21 (stereo not given),0.6,nt
CCO/C=C1\SC(=S)N(/N=C/c2cccc(Cl)c2)C1=O,-13,nt
CCCn1c(-c2ccc(F)cc2)n[nH]c1=O,-0.2,nt
CCc1nnc2c(Nc3ccc4c(c3)OCCO4)nc3ccccc3n12,4.2,nt
CN1C(=O)c2ccc(NC(=O)c3c(F)c(F)c(F)c(F)c3F)cc2C1=O,-0.2,0.21
Cc1nnsc1-c1n[nH]c(C)c1C(=O)NN,-3.7,-0.24
CCN1CCN(C(C)C(=O)Nc2ccc3c(c2)OCO3)CC1 (stereo not given),-3.1,2.5
CSc1ccccc1C(=O)Nc1cc(C)cc(C)c1,nt,1.3
CCCCN(C)S(=O)(=O)c1ccc2c(c1)CCCC(=O)N2,3.2,nt
COc1ccc(CN(C)C(=O)CSc2ccccc2)cc1,-3.0,1.2
CCOc1ccc(OCCC(=O)Nc2ccc(S(=O)(=O)N(C)C)cc2)cc1,1.5,nt
CCn1cc(CCC(=O)NC(C)C)c2ccccc21,1.9,-0.75
N#Cc1ccsc1NC(=O)COC(=O)CSc1nnc(-c2ccc(F)cc2)n1-c1ccccc1,-17,nt
O=C(OCc1nnc(-c2ccc(Cl)cc2)o1)c1ccc2c(c1)C(=O)N(Cc1ccco1)C2=O,3.5,nt
NS(=O)(=O)Cc1noc2ccccc12,nt,0.55
C=CC[N+](C)(C)CC#Cc1ccccc1,3.2,nt
CCOC(=O)C1=C(N)Oc2c(C)cc(Cl)cc2C1C(C#N)C(=O)OCC (stereo not given),-0.3,nt
CCOC(=O)c1nnn2c1nc(Sc1nnc(-c3ccncc3)n1C)c1ccccc12,0.7,nt
Cc1ccc(S(C)(=O)=NS(=O)(=O)c2sc3ccc(Cl)cc3c2C)cc1 (stereo not given),1.3,nt
Cc1noc(C)c1CSc1ncccc1C(=O)Nc1sc2c(c1C#N)CCC(C)C2 (stereo not given),2.4,nt
CN1CCN(c2nc(-c3cccs3)cc(C(F)(F)F)n2)CC1,1.6,-0.25
Cc1ccc(SCCC#N)cc1,0.0,nt
N#Cc1ccc(COC(=O)Cn2ccc(=O)[nH]c2=O)cc1,0.6,nt
CC(C1CC1)N1C(=O)C2C(C1=O)C1C=CC2C12CC2 (stereo not given),0.6,-1
COC(=O)c1ccc(OC(=O)c2sccc2C)cc1,2.4,nt
O=C(C1COc2ccccc2O1)N1CCNCC1 (stereo not given),nt,1.3
COC(=O)C1=C(NNc2ncc(Cl)cc2C(F)(F)F)CSC1,2.8,-1.6
CCC(OC(=O)CN1C(=O)c2ccccc2C1=O)C(=O)NC1CCCC1 (stereo not given),-1.0,-1.3
O=C(Cn1c(C(=O)O)cc2ccccc21)c1ccccc1,0.4,0.65
CC(C)OCC(O)CSc1nc2ccccc2s1 (stereo not given),0.7,0.8
CCC1CCCN1Cn1cnc2c([nH]c3ccccc32)c1=O (stereo not given),-7.4,-0.096
Cc1c(CCC(=O)N2CCOCC2)c(=O)oc2c(C)c(O)ccc12,-1.3,0.027
O=C(Cc1csc(N2CCOCC2)n1)N/N=C/c1cccc(O)c1,5.4,nt
CCn1c(O)c(N=NC(=O)c2ccc(C)nc2)c2ccccc21,0.5,-0.16
CC(=O)Nc1c(N)c2ccccc2oc1=O,-0.7,nt
CCOC(=O)c1c(C)[nH]c(C)c1C(=O)CSc1cccc[n+]1[O-],-0.6,nt
CC(C)N1C(=O)CC(Nc2cccc3cccc(N)c23)C1=O (stereo not given),-0.6,0.78
O=C(N/N=C/C=C/c1ccccc1)c1cc(C2CC2)[nH]n1,3.9,-0.48
S=C(NCc1ccccc1)NC1CC1,0.3,0.86
CCOC(=O)C1=C(C(C)C)NC(=O)NC1c1ccc(F)cc1 (stereo not given),1.0,-0.38
